Screening data: PubChem BioAssay, several laboratories
Mtb betalactam: beta-lactam sensitization of Mtb H37Rv; M. tuberculosis H37Rv growth with meropenem, percent inhibition; hits of this screen are not shown here; inhibition, % at 25 µM; 330,000 compounds, 0.27% hits; AID 434955;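 active = about 74% or more and at least 40 points above the plate without the antibiotic, then above 30% in a dose series; inconclusive = first-round hits that could not be retested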;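 also: growth measured after seven days incubation then overnight dye step; 0% = bacteria only wells and 100% = bacteria with antibiotic; twin plates without the antibiotic show which effects depend on it; some results filed as inactive read as strong as hits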
Mtb H37Rv: M. tuberculosis H37Rv growth inhibitors, H37Rv strain (AID 1626). M. tuberculosis H37Rv growth inhibition; higher % means a stronger effect. inhibition, % at 10 µM, or IC50 in µM where a hit was titrated. 220,000 compounds, 0.95% hits;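 active = confirmed in a dose series; inconclusive = inhibition above 80% but not taken into the dose series; inactive = below 80% or under 30% at every dose of the series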;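 also: bacteria incubated seven days before Alamar blue readout; 0% = bacteria only wells and 100% = bacteria with antibiotic wells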
YopH PTP inh: blocks Yersinia enterocolitica YopH tyrosine phosphatase; fluorescence Ex485/Em525; inhibition, %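 (about 10 µM by stock and volumes)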; 140,000 compounds, 0.16% hits;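 active = inhibition of 50% or more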;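 also: controls were vehicle for no effect and minimum signal wells for full effect; inactives centre near -20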
RecA intein inh: Mtb RecA intein splicing inhibition. cell-free RecA intein splicing, fluorescence. inhibition, %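 (about 9 µM by stock and volumes)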. 290,000 compounds, 0.75% hits. AID 2221; in the data active = inhibition above about 30%; inconclusive = no clear call, values can overlap the other calls;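 also: 0% = vehicle wells and 100% = reference inhibitor control wells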
Target sequence (P9WHJ3 whole entry, looked up): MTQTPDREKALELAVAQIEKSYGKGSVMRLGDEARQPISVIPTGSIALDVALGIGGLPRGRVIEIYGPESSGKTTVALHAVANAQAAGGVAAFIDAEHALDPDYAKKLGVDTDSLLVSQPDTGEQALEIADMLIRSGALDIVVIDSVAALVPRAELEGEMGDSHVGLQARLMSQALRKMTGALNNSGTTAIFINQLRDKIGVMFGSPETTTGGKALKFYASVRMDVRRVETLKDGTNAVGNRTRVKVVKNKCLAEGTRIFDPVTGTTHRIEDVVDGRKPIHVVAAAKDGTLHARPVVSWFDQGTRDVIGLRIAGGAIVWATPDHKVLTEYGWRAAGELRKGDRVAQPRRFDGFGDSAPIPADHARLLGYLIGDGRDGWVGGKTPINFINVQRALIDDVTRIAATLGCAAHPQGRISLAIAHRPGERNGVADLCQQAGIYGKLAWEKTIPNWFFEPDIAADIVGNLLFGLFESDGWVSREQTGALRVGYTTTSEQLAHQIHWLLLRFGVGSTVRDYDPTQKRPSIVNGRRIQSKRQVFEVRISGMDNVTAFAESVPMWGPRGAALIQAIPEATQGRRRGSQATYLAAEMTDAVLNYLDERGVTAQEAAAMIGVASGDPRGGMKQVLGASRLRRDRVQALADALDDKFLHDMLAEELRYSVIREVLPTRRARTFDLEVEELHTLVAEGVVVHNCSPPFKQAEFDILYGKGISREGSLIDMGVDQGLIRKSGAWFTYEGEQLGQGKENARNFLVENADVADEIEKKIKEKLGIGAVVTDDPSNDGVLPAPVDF
Arbovirus inh: blocks arbovirus infection. arbovirus infection cell-based antiviral screen. inhibition, % at 10 µM. 200,000 compounds, 0.37% hits. AID 1251;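 active = inhibition from about 30%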;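 also: bluetongue infection of BSR cells; cell survival read as ATP light after 72 h; 0% = infected wells without compound and 100% = uninfected wells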
Arbovirus inh repeat: recorded beside Arbovirus inh, whose call it bears; inhibition, %; measured here: 10K subset replicate screen; many hits read low in the repeat;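 first of two repeat runs on a subset; 0% = infected and 100% = uninfected wells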
Numbers without * were called inactive; ? = inconclusive; · = not tested or not shown.

SMILES	Mtb betalactam	Mtb H37Rv	YopH PTP inh	RecA intein inh	Arbovirus inh	others
Cc1nc(-c2cccs2)sc1C(=O)NN	-4	2%	·	-6.7	·
O=c1[nH]c(NCCO)nc2c1C1(CCCCC1)Cc1ccccc1-2	-1	-9%	-20	·	10
Cc1ccc(-c2nnc(Nc3cccc(O)c3)c3ccccc23)cc1S(=O)(=O)NCCO	1	·	·	2.4	·
N=C1/C(=C/c2cccn2-c2ccc([N+](=O)[O-])cc2)C(=O)N=C2SC=CN12	5	-6%	-16	-1.0	-15
COC(=O)c1cc(Cl)c(NC(=O)/C=C/c2ccc(Cl)cc2)cc1OC	7	-10%	-11	0.4	-21
COc1ccc2c(CC(=O)NCC3CCC(C(=O)O)CC3)cc(=O)oc2c1 (stereo not given)	-2	·	-17	-0.9	3
c1ccc2c(c1)CCc1ccccc1C2=C1CCNCC1	-2	·	·	4.0	·
CC(=O)Nc1sc2c(c1CN1CCN(C)CC1)CCCC2	-7	-2%	-103	4.4	5
COc1ccc(NC(=O)C2CCCCN2CC(=O)OCc2ccccc2)cc1OC (stereo not given)	5	-7%	-53	5.8	0
COc1ccc(-c2noc(CCCC(=O)O)n2)cc1	-4	3%	-29	-0.8	-6
COCCNC(=O)C(c1ccc(OC)cc1)N(CCOC)C(=O)CCC(=O)Nc1nccs1 (stereo not given)	-4	·	·	1.1	·
Cc1ccc(NC(=O)CCC(=O)OCC(=O)c2ccc(-c3ccccc3)cc2)cc1	14	-8%	6	0.8	4
O=C(Cc1cccs1)Nc1ccccc1-c1nc2ccccc2[nH]1	-2	6%	·	-13	·
CC1=C(Sc2nc3ccccc3[nH]2)C(=O)NC(C)(C)C1	6	2%	-45	-0.5	12
Nc1cccc(-c2nc3ccccc3[nH]2)c1	-3	7%	-8	0.2	-5
COc1cc(Br)cc2cc(C(=O)N3CCCCC3C)c(=O)oc12 (stereo not given)	10	-3%	-33	0.6	6
COC(=O)N1[C@H](C)C=C[C@]1(Cc1ccccc1)C(=O)NCCCNc1ncc(C(F)(F)F)cc1Cl	-10	-1%	·	3.1	·
Cc1cccc(N2CCN(C(=O)C(NS(=O)(=O)c3cccs3)c3ccccc3)CC2)c1C (stereo not given)	10	5%	-7	0.3	24
O=C(CSc1nc2ncccc2[nH]1)NC1CCCCC1	1	·	·	-2.5	·
Cc1ccc(Cl)cc1N1C(=O)CC(Sc2ncccn2)C1=O (stereo not given)	-7	·	·	-0.3	·
NC(=O)c1c(NC(=O)c2ccc([N+](=O)[O-])o2)sc2c1CCCC2	100	·	·	-7.0	·
CCOCCCNC(=O)c1ccc(N2CCOCC2)c(NS(=O)(=O)c2ccc(OC)cc2)c1	3	7%	·	-0.8	-5
COC(=O)c1ccc(Cn2cnc3c(cnn3-c3ccc(C)c(C)c3)c2=O)o1	-11	-9%	-6	1.3	19
CCCN1CCN(CCCNC(=O)CCCn2nc(C)c3sc4ccccc4c3c2=O)CC1	0	·	·	-1.5	·
O=C(NNC(=O)c1ccc2c(=O)n3c(nc2c1)CCC3)c1cccc(Cl)c1	-6	·	·	-0.5	·
COc1ccc(-c2csc(Nc3cc(C)ccn3)n2)cc1C	89	·	·	-0.4	·
CCOc1ccc(NS(=O)(=O)c2ccc(NC(=O)c3cccnc3)c(OC)c2)cc1	-3	-1%	·	1.6	12
CCOC(=O)N1c2ccccc2Sc2ccccc21	3	-1%	·	-3.7	-15
CCN(C(=O)/C=C/c1ccccc1)C1CCCCC1	8	·	·	1.8	·
CCOC(=O)Cc1csc(NC(=O)COc2ccc(C)c(C)c2)n1	-3	-1%	·	2.0	12
Cc1ccc2c(CSc3nncn3C)cc(=O)oc2c1C	0	-2%	·	2.3	11
O=C(Cn1nc(-c2cccc(Cl)c2)ccc1=O)Nc1cccnc1	?	2%	-47	-0.2	-3
CN(CC1CCCN(CCc2ccccc2F)C1)C(=O)c1ccoc1 (stereo not given)	1	·	·	-1.7	·
Cc1cc(SCC(=O)N(C)CC(=O)Nc2ccc(F)cc2)nc2ccccc12	8	4%	-25	0.7	5
O=C(CN(c1ccc2c(c1)OCCO2)S(=O)(=O)c1ccccc1)NCC1CCCO1 (stereo not given)	-3	3%	-27	0.0	14
O=C(Nc1nnc(Cc2ccc(Cl)cc2)s1)c1cccs1	-12	-8%	-19	-2.1	-2
COC(=O)c1ccc(-c2n[nH]c(=O)c3ccccc23)cc1	-1	1%	-9	-0.7	-6
COC(=O)c1sc(S(=O)(=O)NC(C)C(=O)O)c(C(=O)OC)c1C (stereo not given)	-7	0%	·	2.0	3
COc1ccc(C(=O)N2CCCC(Nc3ccc(F)cc3)C2)cc1F (stereo not given)	?	·	·	0.9	·
CCOC(=O)C1=C(CN2CCC(C)CC2)NC(=O)NC1c1ccc(Cl)cc1 (stereo not given)	-3	-4%	19	1.2	-45
Cc1ccc(NC(=O)COc2ccccc2)c(NC(=O)c2ccco2)c1	3	·	·	-0.4	·
O=C(NC1CCCCC1)C(c1ccncc1)N(C(=O)c1csnn1)c1ccccc1F (stereo not given)	-5	·	·	-1.0	·
COc1ccc(F)cc1Cn1nc(C(=O)O)c2ccccc2c1=O	-1	·	·	1.6	·
Cc1ccc(S(=O)(=O)CC(=O)c2ccc(C(C)(C)C)cc2)cc1	0	8%	-41	-2.3	12
CCCn1c2ccccc2c2nnc(SCC(=O)Nc3nnc(CC(=O)OCC)s3)nc21	2	-4%	-4	1.4	0
O=C(Nc1ccc(Cc2ccncc2)cc1)c1cccc([N+](=O)[O-])c1	11	12%	-23	0.4	-6
COc1ccccc1NC(=S)NCCc1c[nH]c2ccccc12	3	0%	-46	8.2	9
CCCNC(=O)C(=O)N/N=C/c1ccc(OCc2ccccc2)cc1	6	-3%	·	0.1	0
Cc1ccc(Nc2nc(N)nc(CSc3nc(C)cc(C)n3)n2)cc1	4	13%	-21	1.3	5
CC(=O)c1cccc(NC(=O)N2CCC(NC(=O)C3CCCCC3)CC2)c1	-9	·	·	-2.2	·
c1ccc(-n2cnnc2SCc2nc3ccccc3s2)cc1	-7	-7%	7	·	-3
COc1ccc(N=C2C(=O)Nc3c(C)cccc32)cc1	98	>100µM*	-30	-2.5	-20
COc1ccc(C2(O)C(=O)Nc3ccc(C)cc32)cc1 (stereo not given)	-6	·	·	-1.1	·
CCOc1ccccc1Nc1nc(-c2cccnc2)cs1	72	·	·	-0.9	·
CC(C)(C)NC(=O)COC(=O)c1snc(C(=O)NC2CCCCC2)c1N	100	1.8µM*	-13	-3.6	1
COc1ccc(C(=O)CN2C(=O)c3ccccc3C2=O)c(OC)c1	5	·	·	-1.1	·
O=C(NCc1ccccc1Cl)c1cc2c(s1)CS(=O)(=O)C2	-3	·	·	0.9	·
Cn1ncc2c(Nc3ccc([N+](=O)[O-])cc3)nc(Cl)nc21	5	0%	·	2.9	·
O=C(Cc1ccccc1)Oc1ccc(N2C(=O)CCC2=O)cc1	-4	-18%	-19	10	-5
CCN(CC)c1ccc(/C=C/c2cc(-c3ccccc3)c3ccccc3n2)cc1	26	21%	·	-35	·
(continued)
SMILES	Mtb betalactam	Mtb H37Rv	YopH PTP inh	RecA intein inh	Arbovirus inh	others
Brc1cc(Br)c2nc(-c3ccc(N4CCOCC4)cc3)ccc2c1	·	·	-19	·	5
O=c1c2ccccc2c(C=NCCc2ccccc2)c(O)n1Cc1ccccc1	1	9%	16	7.5	-3
Cc1c(O)ccc(/C=N/Nc2nc(-c3cccnc3)nc3ccccc23)c1O	-4	4%	·	-6.4	·
CC(=O)c1cnc2c(-c3ccccc3)cnn2c1C	0	-6%	19	1.2	-5
Cc1ccccc1CN1[C@@H](CC2CCCCC2)COCCS1(=O)=O	32	·	·	9.9	·
CCN1CCN(CCC(=O)Nc2ccc(Br)c(C)c2)CC1	-7	·	·	-2.3	·
CC/C(=N\NC(=O)COc1ccc(Br)cc1)c1ccc(OC)c(OC)c1	1	-3%	·	-0.9	5
CC(=O)Nc1ccccc1C(=O)C(=O)Nc1cccc(C(=O)NCc2ccc(C)cc2)c1	3	9%	-24	-1.2	-18
C/C=C/c1cc(CN2CCN(c3ccccc3)CC2)c(O)c(OC)c1	2	1%	·	-3.7	18
Cc1ccc(-c2cc(C(F)(F)F)c(C#N)c(=O)[nH]2)cc1	-6	-5%	-20	-25	54*
O=C(NCC(c1ccco1)N1CCN(c2ccccc2)CC1)OCc1ccccc1 (stereo not given)	7	12%	-7	8.5	-10
Cc1sc2nc(CSC(C)C(=O)Nc3cc(S(C)(=O)=O)ccc3Cl)[nH]c(=O)c2c1C (stereo not given)	-15	·	·	0.7	·
CCN1CCN(C(c2ccccc2OC)c2nnnn2C2CCCCC2)CC1 (stereo not given)	-1	4%	-34	-1.0	7
N=C(N)SCc1cccc2ccccc12	3	4%	-24	1.8	18
O=C(CCn1c(=O)[nH]c2ccsc2c1=O)N1CCc2ccccc2C1	-1	7%	-38	-2.8	3	Arbovirus inh repeat=1

Filtered by structure: the entries above with an aryl methoxy group.
SMILES	Mtb betalactam	Mtb H37Rv	YopH PTP inh	RecA intein inh	Arbovirus inh	others
COC(=O)c1cc(Cl)c(NC(=O)/C=C/c2ccc(Cl)cc2)cc1OC	7	-10%	-11	0.4	-21
COc1ccc2c(CC(=O)NCC3CCC(C(=O)O)CC3)cc(=O)oc2c1 (stereo not given)	-2	·	-17	-0.9	3
COc1ccc(NC(=O)C2CCCCN2CC(=O)OCc2ccccc2)cc1OC (stereo not given)	5	-7%	-53	5.8	0
COc1ccc(-c2noc(CCCC(=O)O)n2)cc1	-4	3%	-29	-0.8	-6
COCCNC(=O)C(c1ccc(OC)cc1)N(CCOC)C(=O)CCC(=O)Nc1nccs1 (stereo not given)	-4	·	·	1.1	·
COc1cc(Br)cc2cc(C(=O)N3CCCCC3C)c(=O)oc12 (stereo not given)	10	-3%	-33	0.6	6
CCOCCCNC(=O)c1ccc(N2CCOCC2)c(NS(=O)(=O)c2ccc(OC)cc2)c1	3	7%	·	-0.8	-5
COc1ccc(-c2csc(Nc3cc(C)ccn3)n2)cc1C	89	·	·	-0.4	·
CCOc1ccc(NS(=O)(=O)c2ccc(NC(=O)c3cccnc3)c(OC)c2)cc1	-3	-1%	·	1.6	12
COc1ccc(C(=O)N2CCCC(Nc3ccc(F)cc3)C2)cc1F (stereo not given)	?	·	·	0.9	·
COc1ccc(F)cc1Cn1nc(C(=O)O)c2ccccc2c1=O	-1	·	·	1.6	·
COc1ccccc1NC(=S)NCCc1c[nH]c2ccccc12	3	0%	-46	8.2	9
COc1ccc(N=C2C(=O)Nc3c(C)cccc32)cc1	98	>100µM*	-30	-2.5	-20
COc1ccc(C2(O)C(=O)Nc3ccc(C)cc32)cc1 (stereo not given)	-6	·	·	-1.1	·
COc1ccc(C(=O)CN2C(=O)c3ccccc3C2=O)c(OC)c1	5	·	·	-1.1	·
CC/C(=N\NC(=O)COc1ccc(Br)cc1)c1ccc(OC)c(OC)c1	1	-3%	·	-0.9	5
C/C=C/c1cc(CN2CCN(c3ccccc3)CC2)c(O)c(OC)c1	2	1%	·	-3.7	18
CCN1CCN(C(c2ccccc2OC)c2nnnn2C2CCCCC2)CC1 (stereo not given)	-1	4%	-34	-1.0	7

Some of the compounds tested, so the mix of outcomes need not match the whole.
